VDR inh = vitamin D3 receptor (human) inhibition; 0.93% of 400,000 active; VDR-SRC2-3 peptide fluorescence polarization, 2 h; AID 504847; P11473; Potency, µM, inactives show max response, negative = inhibition, actives largely listed as inhibitors; active = well fitted inhibition curve with a large enough effect; inconclusive = small, poorly fitted or top-dose-only effect, or another doubt; inactive = no such curve, though single readings can be large or run the other way; also: series mostly up to about 120 µM
Target sequence (P11473 whole entry, looked up): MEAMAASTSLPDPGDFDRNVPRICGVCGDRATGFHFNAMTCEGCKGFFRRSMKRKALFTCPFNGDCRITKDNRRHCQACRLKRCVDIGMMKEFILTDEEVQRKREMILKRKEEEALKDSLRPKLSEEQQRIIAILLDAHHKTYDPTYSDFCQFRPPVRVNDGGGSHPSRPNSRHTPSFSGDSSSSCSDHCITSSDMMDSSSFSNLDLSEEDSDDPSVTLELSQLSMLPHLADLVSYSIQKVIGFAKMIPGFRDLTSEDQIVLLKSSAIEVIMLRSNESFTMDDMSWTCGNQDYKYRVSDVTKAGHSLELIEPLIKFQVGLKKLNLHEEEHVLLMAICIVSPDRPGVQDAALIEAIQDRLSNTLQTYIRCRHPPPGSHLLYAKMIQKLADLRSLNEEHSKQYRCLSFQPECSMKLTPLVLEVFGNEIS
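Measured by FP: displacement of SRC2-3 coactivator peptide from VDR by library compounds, following a two-hour ambient incubation.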
Starred values were filed as active, the others as inactive; ? = inconclusive; & = joins results of further samples; [ ] = another dose, or the depositor's remark. % is scaled to controls: 0 for no effect and ±100 for the full control effect; potency is read from the fitted curve at half-maximal effect. These rows are one share of the data, so the mix of outcomes need not match the whole.

canonical_smiles,VDR inh
CCOc1ccc(S(=O)(=O)NCc2cccnc2)cc1,?
Cc1c(NC(=O)C(C)Oc2ncnc3ccccc23)c(=O)n(-c2ccccc2)n1C (centres undefined),3%
CC(C)N(Cc1nc(-c2ccccc2)no1)C(=O)CCCN1C(=O)c2ccccc2C1=O,6%
O=C1C=C(c2ccc(Cl)c(C(F)(F)F)c2)C[C@@H](c2ccc3c(c2)OCO3)C1,4%
Cc1cc2c(NC3CCCCC3)ncnc2s1,-2%
C=CCC1C=CCC(CC=C)N1C(=O)c1ccccc1[N+](=O)[O-] (centres undefined),5%
CC1(C)C(CO)=CC(=O)C2=C1SCC(=O)N2,-3%
COc1ccc(NS(=O)(=O)c2ccc(N3CCCC3=O)cc2)cn1,11%
Cc1ccccc1NC(=O)COC(=O)C1CC2CCCC(C1)C2=O (centres undefined),-14%
Cc1cc(C)c(S(=O)(=O)N2CCN(Cc3ccc4c(c3)OCO4)CC2)cc1C,24%
Cc1cc2ccccn2c1C(=O)c1cccc([N+](=O)[O-])c1,-4%
CC[n+]1ccc(C)c2cc(SC(F)(F)F)ccc21,37%[activator]
CC(=O)C1CCC2C3CCC4=CC(=O)C=CC4(C)C3C(=O)CC12C (centres undefined),-8%
O=C(O)c1ccccc1C(=O)Nc1ccc(-n2ccc(C(F)(F)F)n2)cc1,-4%
CCN1CCN(c2ccc(Cl)cc2NC(=O)c2ccc(-n3nc(C)cc3C)cc2)CC1,-23%
Cc1nc2ccccc2nc1CN1CCC(CO)(CC2CCCCO2)CC1 (centres undefined),-21%
COC(=O)c1ccc(NC(=S)NCCCN2CCCC2=O)cc1,-9%
COc1cccc(-n2nnc3c(=O)n(CC(=O)Nc4ccc(C)cc4)cnc32)c1,2%
O=C(CCC(=O)OCC(F)(F)C(F)F)Nc1ccc(F)cc1F,-11%
CCc1nn(-c2ccccc2)c2nc(-c3ccccc3OC)c3cc(OC)c(OC)cc3c12,6%
CCc1ccc(NC(=O)NNC(=O)CCc2ccccc2)cc1,12%
CCc1ccc(CN(C)C(C)C(=O)Nc2ccc(S(=O)(=O)N3CCCC3)cc2)cc1 (centres undefined),-1%
C=CCn1c(COc2ccc(Cl)cc2)nnc1SCC(=O)N1CC(=O)Nc2ccccc21,13%
Cc1ccc2nc(SC(C)C(=O)N3CCCC3)[nH]c2c1 (centres undefined),-10%
Cc1ccc(-c2nnn(CC(=O)N(c3ccccc3)C(C(=O)NC3CCCC3)c3ccco3)n2)o1 (centres undefined),-9%
COc1ccc([C@@H]2C[C@@H](c3ccccc3)Oc3cc(C)cc(C)c32)cc1,-6%
CCCCOCC(O)CCc1n[nH]c(=S)n1-c1ccccc1 (centres undefined),-20%
CCOC(=O)N1CCN(S(=O)(=O)c2ccc(C(=O)N(CCCN(C)C)c3nc4c(C)c(C)ccc4s3)cc2)CC1,-14%
O=C(NCc1cccc(Br)c1)C1CC2Cn3c(nc4ccccc43)C2N1Cc1ccccc1 (centres undefined),4%
O=C(Oc1cccnc1)c1ccc([N+](=O)[O-])cc1,3%
CN(C(=O)CSc1nc2ncccc2o1)c1ccc(F)cc1,11%
N#CC(C#N)=Cc1cc2ccccc2nc1N1CCCCC1,71µM*
COc1ccc(-c2csc3ncn(Cc4ccccc4)c(=O)c23)cc1,6%
COc1cc(SC)ccc1C(=O)NNC(=O)C1COc2ccccc2O1 (centres undefined),0%
O=C(NCCCN1CCOCC1)C(=O)NCC1OCCN1S(=O)(=O)c1ccc(Br)cc1 (centres undefined),1%
Cc1noc(C)c1COC(=O)[C@H](C)NS(=O)(=O)c1ccc(Cl)c(Cl)c1,0%
COc1ccc(N2CCN(C(=O)Cn3c(-c4cccs4)cc4ccccc43)CC2)cc1,6%
Cc1ccc(C(=O)c2cn(Cc3cccc(C)c3)c3nc(C)ccc3c2=O)cc1,-8%
CCn1c(=O)n(-c2ccc(F)c(Cl)c2)c(=O)c2c3c(sc21)CN(C(C)=O)CC3,-3%
CN1CCN(CCCNC(=O)c2ccc(/C=C3\Oc4ccccc4N(Cc4ccccc4F)C3=O)cc2)CC1,-4%
O=C(NCc1ccco1)c1ccc2c(c1)N(Cc1ccc(F)cc1)C(=O)c1ccccc1S2=O (centres undefined),-10%
CC(C)CC1Nc2ncnc(N3CCCCC3)c2N(Cc2ccc(Br)cc2)C1=O (centres undefined),-5%
CCOC(=O)c1c(C)oc2c(Cl)cc(NS(=O)(=O)c3ccc(Cl)c(C)c3)cc12,-9%
CCOC(=O)CN(C(=O)c1ccccc1[N+](=O)[O-])C(C)(C)C,-2%
CCCOc1ccc2nc(C)c(CCC)c(SC(=N)N)c2c1,-2%
COc1ccc(CNC(=O)COC(=O)c2ccc(C)c(S(=O)(=O)N3CCOCC3)c2)cc1OC,-21%
O=C(NCCc1ccc(Cl)cc1)c1ccc2c(c1)nc1n2CCOC1,12%
Cc1c(C(=O)N2CCc3ccccc3C2)oc2ccc(Br)cc12,-5%
COc1ccc(-c2ccc(C(C)=O)cc2)cc1C1C2C=CCC(C)C2C(=O)N1Cc1ccccc1 (centres undefined),5%
Cc1ccccc1CNC(=O)CCn1nc(C)c2c(C)n(-c3ccccc3)nc2c1=O,-3%

(further entries)
canonical_smiles,VDR inh
COc1ccc2c(c1)nc(SCC(=O)c1cccs1)n2C,-23%
Cc1ccc(NC(=O)CSc2ccc(-c3cccnc3)nn2)cc1,-12%
O=C(COc1ccc(-c2ccccc2)cc1)Nc1cccnc1,-1%
Cc1cccc(NC(=O)CSc2nc(-c3ccco3)nc3cc(=O)[nH]n23)c1,-3%
O=C(CSc1nnc(Nc2ccccc2)s1)Nc1cccnc1Cl,-1%
O=C(C1CCCN(S(=O)(=O)c2cccc3cccnc23)C1)N1CCN(c2ccc(F)cc2)CC1 (centres undefined),-9%
C[C@H](NC(N)=O)C(=O)Nc1ccc2c(c1)OCO2,-3%
CCC(CO)[n+]1c(C)cc(/C=C2\Sc3ccccc3N2Cc2ccccc2)cc1C (centres undefined),-2%
Cc1ccc(N(CC(=O)NCc2ccccc2)C(=O)c2csnn2)c(C)c1,-6%
O=C(c1cc2c(s1)-c1ccccc1S(=O)(=O)C2)N1CCCC1,-12%
CCOc1ccc(/C=C/C(=O)C(C(N)=O)=C2SCCS2)cc1,10%
Cc1nc(C)c(-c2ccc(SCc3cccc(F)c3)nn2)s1,-2%
COc1ccc(Cl)cc1N1CC(C(=O)Nc2nccs2)CC1=O (centres undefined),19%
c1ccc(-c2nc3nonc3nc2-c2ccccc2)cc1,-5%
COC(=O)Cn1cnc(=O)c(C#N)c1/C=C/N(C)C,20%
Cc1ccc(-n2ncc3c2CC(C)(C)CC3NC(=O)c2cc[n+]([O-])cc2)cc1 (centres undefined),-22%
COCCNC(=O)C1CCN(Cc2cccc(OCc3ccccc3)c2)CC1,-21%
COc1cccc(CSc2nc(-c3ccccc3OC)nc3c2Cc2c(CO)cnc(C)c2O3)c1,5%
c1ccc2c(c1)oc1c(NCCCN3CCOCC3)ncnc12,-14%
COc1ccc(NC(=S)NNC(=O)CCn2cc([N+](=O)[O-])cn2)cc1,15%
O=C(/C=C/c1ccc2c(c1)OCO2)NCc1ccco1,-15%
Cc1ccc(C)c(C(=O)OCC(=O)Nc2cccc(S(=O)(=O)NC3=NCCCCC3)c2)c1,1%
CCCc1nnc(SCc2ccc(OC)cc2)n1N,25µM*
O=C(Nc1ccc(C(=O)N2CCOCC2)cc1)c1cccs1,1%
COc1cc(NC(=O)CCc2nnc3ccc(N4CCC(C)CC4)nn23)cc(OC)c1,15%
CCOC(=O)C1CCN(C(c2cc3cc(C)cc(C)c3[nH]c2=O)c2nnnn2C2CCCCC2)CC1 (centres undefined),14%
O=C(N/N=C/c1cn(-c2ccccc2)nc1-c1cccnc1)c1cccnc1,-8%
CCOc1ccc(NC(=S)Nc2ccccc2C2(C)CC2)cc1,-3%
CCOC(=O)c1c(NC(=S)N2CCN(C)CC2)sc2c1CCN(C(=O)OCC)C2,?
O=C(O)/C=C/C(=O)Nc1ccc(OC(F)F)cc1,0%
O=C(COC(=O)c1ccc(F)cc1Cl)Nc1cccc(S(=O)(=O)N2CCOCC2)c1,-8%
Cc1cc(N)ncc1[N+](=O)[O-],-8%
COc1ccc(C(=O)/C=C/c2cccc(OCc3ccccc3)c2)cc1CSCC(=O)O,13µM*
Cc1c(CC(=O)NCCCO)c(=O)oc2cc3c(cc12)CCC(C)(C)O3,-9%
O=C(CCc1ccc(S(=O)(=O)N2CCOCC2)cc1)N1CCCC1,9%
CCc1ccc(N/C(=N/c2nc(C)cc(C)n2)NC(C)=O)cc1,-1%
CCOCCCNC(=S)NCCCNc1nc2c(C)c(C)ccc2cc1C#N,-10%
CCN(CC)NC(=S)Nc1ccccc1,-3%
Cc1cc(-n2cnc(-c3cn(C)nc3C)n2)no1,-5%
Cc1cccc(C(=O)NCC(=O)N2CCN(S(=O)(=O)c3ccc4c(c3)OCCO4)CC2)c1,6%
Cc1cccc(-c2nc(CCNC(=O)c3ccc(Br)o3)cs2)c1,6%
c1cc(Nc2cccc3nccnc23)c2nccnc2c1,1%
COc1ccccc1/C=C1\SC(=O)N(CC(=O)NCCCn2ccnc2)C1=O,-6%
O=C(NC(=S)Nc1cccnc1Cl)c1ccc(F)cc1,-6%
O=C(NNC1=C(C(=O)C(F)(F)F)CCC1)c1cccnc1,0%
Cc1c(CNC2CCCCCC2)c(C(=O)O)c(C)n1Cc1cccc(Cl)c1,0%
COc1ccc(C(=O)C2CCCN(C(=O)CCc3ccccn3)C2)c(C)c1 (centres undefined),-7%
Cc1cccc(-c2c3c(=O)n(C)c(=O)n(C)c3c3cnc4ccccc4n23)c1,-6%
COc1ccc(CNC(=O)CC2N=C3c4ccccc4N=C(SCC(=O)Nc4ccc(N(C)C)cc4)N3C2=O)cc1 (centres undefined),7%
Cc1ccc(S(=O)(=O)CCC(=O)Nc2ccc(Br)cc2)cc1,4%

Further compounds.
canonical_smiles,VDR inh
COc1ccccc1C(=O)Nc1cccc(OCc2cc(=O)n3ccccc3n2)c1,19%
CN(C)CCCNc1oc(-c2ccccc2Cl)nc1S(=O)(=O)c1ccccc1,29%
O=C(Nc1ncccn1)c1ccc(Cl)c([N+](=O)[O-])c1,6%
CCOC(=O)N1CCN(S(=O)(=O)c2ccc(C)c([N+](=O)[O-])c2)CC1,-14%
COc1ccccc1CCNC(=O)C(=O)NCC(c1cccs1)S(=O)(=O)c1ccc(F)cc1 (centres undefined),2%
CC1(C)Cc2c(c(-c3ccccc3)[nH]c(=O)c2C#N)CS1,-6%
O=C(Cc1ccc([N+](=O)[O-])cc1)Nc1ccc2c(c1)OCO2,22%
Cc1csc(NC(=O)c2ccco2)c1C(=O)c1ccccc1,39%[activator]
Cc1cc(N(C)C)c(C#N)c(=O)[nH]1,4%
CCc1nc2ccccc2c(C(=O)Oc2cccc3cccnc23)c1C,13%
C/C=C(\CS(=O)(=O)c1ccccc1)S(=O)(=O)c1ccccc1,-3%
CC1=Nc2cc(C(=O)N3CCCCC3)ccc2Sc2ccc(C)cc21,-14%&-10%
CCNc1nc(SCCOc2ccc(C)cc2)nc(N(C)C)n1,5%
CCN(C(=O)CSc1ncc2c(n1)-c1cc(Cl)ccc1N(Cc1ccccc1)S2(=O)=O)c1cccc(C)c1,-11%
CCOc1ccccc1CNC(=O)c1ccc2c(c1)sc1nc(-c3ccccc3)cn12,14%
COc1ccc(Cn2c(C)c(C)c(C#N)c2NC(=O)Nc2cccc(Cl)c2)cc1,42%[activator]
CCOCCOC(=O)C1=C(C)NC2=C(C(=O)CC(c3cccs3)C2)C1c1ccsc1 (centres undefined),-2%
CC(=O)c1ccc(N=Nc2ccc(N)cc2)cc1,17%
COc1ccc(CC(=O)N2CCc3cc(OC)c(OC)cc3C2O)cc1OC (centres undefined),0%
Cc1[nH]c2ccccc2c1C(=O)C(C)OC(=O)c1ccc(Cl)nc1 (centres undefined),-12%

The closing three compounds of the part before open the next one.
canonical_smiles,VDR inh
CC(=O)c1ccc(N=Nc2ccc(N)cc2)cc1,17%
COc1ccc(CC(=O)N2CCc3cc(OC)c(OC)cc3C2O)cc1OC (centres undefined),0%
Cc1[nH]c2ccccc2c1C(=O)C(C)OC(=O)c1ccc(Cl)nc1 (centres undefined),-12%
CN(C)C(=O)c1cn(-c2ccccc2)nc1-c1cccc([N+](=O)[O-])c1,1%
CC(=O)c1cccc(NC(=O)C(C)N(C)CC(=O)Nc2ccc(Cl)cc2)c1 (centres undefined),12%
CSc1ccccc1-c1nnc(-c2ccc(C)cc2)o1,-1%
CCOC(=O)C(C)NC(=O)Cn1ncc2c(=O)oc3ccc(C)cc3c21 (centres undefined),8%

Fetched by compound from the entries so far (4):
canonical_smiles,VDR inh
CSc1ccccc1-c1nnc(-c2ccc(C)cc2)o1,-1%
CC(=O)c1cccc(NC(=O)C(C)N(C)CC(=O)Nc2ccc(Cl)cc2)c1 (centres undefined),12%
CN(C)C(=O)c1cn(-c2ccccc2)nc1-c1cccc([N+](=O)[O-])c1,1%
CCOC(=O)C(C)NC(=O)Cn1ncc2c(=O)oc3ccc(C)cc3c21 (centres undefined),8%

Screening data: PubChem, National Center for Advancing Translational Sciences (NCATS)
